Screening data as filed in PubChem BioAssay.
OX1R antag = blocks the human orexin 1 receptor | O43613 | CHO/OX1R cells, Fluo-8 calcium fluorescence, orexin A | inhibition, % at 5 µM | 0.43% of 330,000 active | AID 434989;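 active = inhibition above its plate's threshold, mean inhibition of all tested compounds on the plate plus 3 SD, cut at about 37% in these data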;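 also: 0% = orexin A challenge wells and 100% = SB-334867-A antagonist wells; not every result past the cut was called active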
Target sequence (O43613 whole entry, looked up): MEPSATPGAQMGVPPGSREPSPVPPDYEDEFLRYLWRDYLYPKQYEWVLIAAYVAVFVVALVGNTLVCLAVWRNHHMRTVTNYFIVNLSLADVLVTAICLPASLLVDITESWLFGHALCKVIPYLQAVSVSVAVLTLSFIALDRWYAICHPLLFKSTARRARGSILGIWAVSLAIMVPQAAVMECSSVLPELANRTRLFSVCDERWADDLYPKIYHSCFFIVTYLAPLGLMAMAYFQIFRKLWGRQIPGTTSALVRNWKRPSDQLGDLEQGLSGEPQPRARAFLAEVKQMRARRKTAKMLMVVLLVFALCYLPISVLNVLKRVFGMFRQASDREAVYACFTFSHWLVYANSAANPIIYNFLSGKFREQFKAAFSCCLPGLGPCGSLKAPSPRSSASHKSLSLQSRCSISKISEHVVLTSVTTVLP
* marks the source's active call; other numbers are inactive results. This is a subset, and most or all hits are left out here.

Molecule | OX1R antag
CC(C)Cn1c(N)c(C(=O)COC(=O)CN2C(=O)C3CC=CCC3C2=O)c(=O)n(C)c1=O (centres undefined) | -3
COc1ccc(CCn2c(N3CCN(C)CC3)nc3c2c(=O)[nH]c(=O)n3C)cc1 | -6
COc1ccc(N/C=C(\C#N)c2ccc(OCCCF)cc2)cc1 | -33
Cc1nc2sc(C(c3ccco3)N3CCC(C)CC3)c(O)n2n1 (centres undefined) | -14
O=C(Nc1ccccc1C(=O)O)c1ccc(NC(=O)C2CC2)cc1 | 5
Cc1cccc(N(Cc2ccccc2)C(=O)c2ccc(S(C)(=O)=O)cc2)c1 | -18
Cc1cccc(C)c1N1C(=O)c2cccc([N+](=O)[O-])c2C1=O | -12
CS(=O)(=O)N1CCN(c2ccc([N+](=O)[O-])c(NCc3ccccc3)c2)CC1 | 9
COc1ccc([N+](=O)[O-])cc1NC(=O)c1ccc(N(Cc2ccccc2C)S(C)(=O)=O)cc1 | -3
COc1ccc(C(=O)NC(=S)Nc2cccc(S(=O)(=O)N3CCOCC3)c2)cc1 | -2
CC(C)NC(=O)CCn1ccc2cc(S(=O)(=O)N3CCCC3)ccc21 | 0
Cc1ccc(OCC(O)CNCc2ccc(F)cc2)cc1 (centres undefined) | -27
Cc1cccc(N(C)C(=O)CN(C)S(=O)(=O)c2ccc3c(c2)c(=O)n(C)c(=O)n3C)c1 | -15
O=C(NCc1ccc(F)c(F)c1)C1CCC(=O)N(CC2CCCCC2)C1 (centres undefined) | -23
O=S(=O)(Cc1ccccc1)N1CCCC1 | 5
CC(=O)Nc1nc2ccccc2[nH]1 | -4
CCOC(=O)c1ccccc1NC(=O)CN(c1cccc(OC)c1)S(C)(=O)=O | -30
COc1ccc(C2c3ccc4ccccc4c3Oc3ncn(CCCN(C)C)c(=N)c32)cc1 (centres undefined) | -17
COC(=O)c1ccc(NC(=O)c2ccc3c(c2)OCO3)cc1 | -9
COc1ccccc1NC(=O)N1CCCC1C(=O)Nc1ccc2c(c1)OCO2 (centres undefined) | -13
COc1ccccc1NS(=O)(=O)c1cccc(C(=O)N/N=C2\CC(=O)CC(C)(C)C2)c1 | -9
Cn1cnc([N+](=O)[O-])c1Oc1ccccc1 | -6
CCc1ccc(NC(=O)CSCCN2C(=O)c3ccccc3C2=O)cc1 | -16
CCOc1ccc(NC(=S)N2CCC(NC(=O)c3ccccc3C)CC2)cc1 | -11
O=C(Nc1cscc1S(=O)(=O)c1ccc(Cl)cc1)c1ccccc1Cl | -39
Cc1ccc(C(=O)CC2SC(N)=NC2=O)cc1 (centres undefined) | -11
Cc1ccc(CNC(=O)CCS(=O)(=O)c2ccc3c(c2)CC(C)N3C(=O)C2CC2)cc1 (centres undefined) | -22
Cn1nc(C(=O)NC2=NCCS2)ccc1=O | 2
Cc1cc2ccccn2c1C(=O)c1ccc(S(=O)(=O)N(C)C)cc1 | -12
COc1cccc(COC(=O)c2sc3nc4n(c(=O)c3c2C)CCC4)c1OC | -9
CN1C(=O)NC(c2ccccc2)C2=C1CN(Cc1ccco1)C2=O (centres undefined) | -8
CN(CC(=O)NCCc1ccc(F)cc1)Cc1cccs1 | -5
O=C(CN1CCN(Cc2ccccc2)CC1)Nc1ccc(Br)cc1 | -20
N/C(=N\OC(=O)c1ccc(Cl)cc1[N+](=O)[O-])c1ccccn1 | -3
Cc1ccc(NC(=O)Cc2ncc(C(F)(F)F)cc2Cl)cc1Cl | -11
O=C(N/N=C/c1cc2c(cc1Cl)OCO2)c1ccccn1 | -16
O=C(NN=C1c2ccccc2-c2ccccc21)c1cccc(Br)c1 | -7
O=C(O)c1cccc(S(=O)(=O)Nc2ccccc2-c2ccccc2)c1 | -2
COc1cc(OC)cc(C(=O)OCC(=O)Nc2ccc(F)cc2F)c1 | 0
O=C(NC1=C(Nc2ccc(F)cc2)C(=O)c2ccccc2C1=O)c1ccc(Cl)cc1 | -27
CC(=O)c1cc2c(cc1NS(=O)(=O)c1ccccc1C)OCO2 | 6
CCOC(=O)/C(C#N)=C/c1cn(CCC(=O)O)nc1-c1cccc(Cl)c1 | -5
C[C@@H]1NC(=O)[C@H](CCC(=O)O)NC(=O)c2cc([N+](=O)[O-])cc(F)c2NCCC[C@@H](C(N)=O)NC1=O | -2
O=C(CSc1nnc(-c2ccncc2)n1CC1CCCO1)NCc1ccccc1 (centres undefined) | -9
O=c1c2ccccc2c(C=Nc2ccc(Cl)cn2)c(O)n1-c1cc(Cl)ccc1N1CCOCC1 | -32
CC(C)NC(=O)c1sc(=S)n2c1[nH]c(=O)c1ccc(C(=O)NCCc3ccc(Cl)cc3)cc12 | -1
CSc1nc2sc3c(c2c(=O)n1C)CCC(C)C3 (centres undefined) | -29
CCOC(=O)c1c(NC(=O)CSc2nnc(-c3cccnc3)o2)sc(C)c1C | -7
O=C(NCSC1=NCCS1)c1ccccc1 | -4
CC(C)(Cl)C1Cc2cc3ccc(=O)oc3cc2O1 (centres undefined) | -5

Carrying on:
Molecule | OX1R antag
COC(=O)c1ccc(C(=O)OC)c(NC(=O)CN(C)Cc2cccc(Cl)c2Cl)c1 | -35
Cc1ccc(NC(=O)C(=O)NCc2ccncc2)cc1 | 3
COc1cc(C(=O)Oc2c(CN3CCOCC3)cc(Cl)c3cccnc23)cc(OC)c1OC | -21
COc1ccccc1C(=O)NNC(=O)C(=O)N1CCCCC1 | 3
CCCCC1=CC2=C(c3ccco3)C(=O)C(C)(OC(=O)c3ccc(OC)cc3)C(=O)C2=CN1c1ccccc1 (centres undefined) | -14
Cc1ccc(-n2c(=S)[nH]c3nc4c(cc3c2=O)COC(C)(C)C4)cc1 | 0
Cc1c(Cl)c(C(F)(F)F)nn1CC(=O)N1CCSCC1 | -8
CCOC(=O)/C(C#N)=C/c1c(Oc2cccc(C)c2)nc2ccccn2c1=O | -22
C[C@H](NC(=O)c1ccc(Br)cc1)C(=O)NCc1ccc(S(N)(=O)=O)cc1 | -10
CCCCNC(=O)c1onc(CSc2ccccc2C)c1C(=O)O | 3
CCCN(CCC)S(=O)(=O)c1ccc(C(=O)Nc2cccnc2)cc1 | -18
O=C(NCCCN1CCN(Cc2ccccc2)CC1)c1nnc(Cc2c(F)cccc2Cl)o1 | -32
CC1Cc2ccccc2N1C(=O)c1ccc(Br)o1 (centres undefined) | -17
O=c1c2c3c(sc2[nH]c(=S)n1Cc1ccco1)CCC3 | -9
CC(C)c1nnc(NC(=O)C2CCCN2C(=O)Nc2ccccc2)s1 (centres undefined) | -7
Cc1cccc(C2CC(c3ccc(F)cc3)Nc3nc(N)nn32)c1 (centres undefined) | -4
Cc1cc(S(=O)(=O)Nc2c(C(=O)O)[nH]c3ccccc23)ccc1F | -18
COC(=O)c1ccc(NC(=O)c2cccc(C)c2)cc1 | -15
COc1ccc(CNCc2ccc3c(c2)OCO3)cc1Br | -26
CC(C)(C)c1ccc(NC(=O)c2ccc3c(c2)S(=O)(=O)c2ccccc2C3=O)cc1 | -6
Cc1ncc(CN2CCN(CCc3ccccc3)C(CCO)C2)s1 (centres undefined) | -17
O=C(Nc1nccs1)c1ccc(S(=O)(=O)c2ccccc2)cc1 | -2
O=C(Cc1ccccc1)N[C@@H](Cc1ccccc1)c1nc2ccccc2[nH]1 | -17
S=C(Nc1ccc(Br)cc1)NC1CCN(Cc2ccccc2)CC1 | -9
c1ccc2c(CNc3ccc(CNc4ncn[nH]4)cc3)cccc2c1 | 17
COc1ccc(CCNS(=O)(=O)c2ccc3oc(C(=O)O)c(C)c3c2)cc1OC | -17
COCCNS(=O)(=O)c1ccc(C2CNC(=O)C2)cc1 (centres undefined) | -5
CC(=O)Nc1cc(NC(C)=O)ncn1 | -18
CC(C)CNC(=O)c1ccccc1NC(=O)CSCc1ccccc1 | -20
Cc1c(Cl)cccc1NC(=O)CSC(C)c1nc2ccccc2c(=O)[nH]1 (centres undefined) | -25
CCOC(=O)N1CCC(NS(=O)(=O)c2ccc(C#N)cc2)CC1 | 10
CCOc1ccc2nc(NC(=O)CN3C(=O)C4CCCCC4C3=O)sc2c1 (centres undefined) | -33
COC(=O)/C(=C1/Oc2ccc(C(C)(C)C)cc2S1)C(F)(F)F | -8
Nc1ccc2c(c1)sc1ccccc12 | -3
Cc1cc(C(=O)Nc2cc(C)n(Cc3ccc(Cl)cc3)n2)no1 | -28
CC1(C)CC(NC(=O)N2c3ccccc3Sc3ccccc32)CC(C)(C)N1 | -24
CCC(C)NC(=S)NNC(=O)c1ccc(C(C)(C)C)cc1 (centres undefined) | -13
Cc1ccc(S(=O)(=O)N2CC(C(=O)O)Oc3ccccc32)cc1 (centres undefined) | -8
CCN(CC(=O)Nc1cccc(S(=O)(=O)N2CCOCC2)c1)Cc1ccccc1 | -31
CCc1ccc(NC(=O)C(CC)Sc2nc3cc4c(cc3c(=O)n2Cc2ccco2)OCO4)cc1 (centres undefined) | -44
N#Cc1cnc(Nc2nc3ccccc3o2)nc1-c1ccccc1 | -19
COC(=O)C1CSC(C(=O)OC)N1C(=O)Nc1ccc(Cl)c(Cl)c1 (centres undefined) | -20
O=C(CCc1c[nH]c2ccccc12)NCc1ccncc1 | -16
CCOC(=O)c1ccc(N=Cc2nc(-c3ccccc3)oc2OC(C)=O)cc1 | -20
O=C(CSc1nc2ccsc2c(=O)n1Cc1ccccc1)NCC1CCCO1 (centres undefined) | -34
COc1ccc(/C=N/n2c(-c3n[nH]c4c3CCC4)n[nH]c2=S)cc1OC | -4
CN(c1ccc(C(=O)NC2CC3CCC2C3)cc1)S(C)(=O)=O (centres undefined) | -22
CCCN1C(=S)SC(C)(C)C1/[N+]([O-])=C/c1ccc(S(=O)(=O)NC)cc1 (centres undefined) | 1
COc1ccc(OC)c(NC(=O)c2ccccc2SC)c1 | -8
CC1(C)Cc2c(cnn2-c2cccc(F)c2)C(NC(=O)CCN2CCCC2=O)C1 (centres undefined) | -8

Next section:
Molecule | OX1R antag
O=C(c1cc(-c2ccc3c(c2)OCO3)on1)N1CCN(c2ccccc2)CC1 | -21
CCOC(=O)c1sc2nccc(OC)c2c1N=CNOC | -23
O=C(CN1CCN(c2ccccc2O)CC1)NC(=O)NC1CCCC1 | -22
C=CCn1c(C)cc(C(=O)CSc2nnc(NC(C)C)s2)c1C | -26
COc1ccc(C(C(=O)NCC2CCCO2)N(C(=O)Cn2nnc3ccccc32)c2ccccc2C(C)=O)cc1OC (centres undefined) | -6
COc1ccc(/C=C2/C(=O)N(Cc3ccccc3)N=C2C)cc1 | 4
O=C(CC12CC3CC(CC(C3)C1)C2)N1CCCC1 | -2
Nc1nnc(CC(=O)N/N=C/c2ccc(-c3ccccc3)o2)s1 | 3
CCc1ccc(Nc2nc(N)nc(CSc3nnnn3-c3ccccc3)n2)cc1 | -10
Nc1cccc(C2=Nc3cccc4cccc(c34)N2)c1 | 7
Cc1cc(C)cc(-n2nnc(C(=O)NCc3ccccc3Cl)c2N)c1 | -10
Cc1ccc(-n2c(SCC(N)=O)nnc2-c2ccccn2)cc1C | -3
O=C(Nc1ccc(N2CCOCC2)cc1)Nc1ccc2nsnc2c1 | -11
CCC(C)c1ccccc1NC(=O)c1[nH]c(C)c(C(C)=O)c1C (centres undefined) | -32
Cc1nnc(SCc2c(Cl)cccc2Cl)s1 | -5
CCN(CC)CCCNc1nc2cc(OC)c(OC)cc2c2nc(-c3ccccc3)nn12 | -7
COc1cc(NC(=S)NC(=O)c2ccc(C)cc2C)ccc1NC(=O)c1cccs1 | -28
O=c1cc(CO)occ1OCc1ccccc1 | -19
O=C(Nc1ccccc1)c1ccccc1NC(=O)c1ccccc1C(=O)O | 6
COc1cc(C)c(S(=O)(=O)NOCc2ccc([N+](=O)[O-])cc2)c(C)c1C | -22
Cc1ccccc1Nc1c(-c2ccccn2)nc2ccccn12 | -28
Cc1ccccc1Cn1cc(NC(=O)c2nc3ncccn3n2)cn1 | -9
CC(C)Oc1ccc(C(=O)Nc2ccc([N+](=O)[O-])cc2)cc1 | -4
O=C(NCc1ccc2c(c1)OCO2)c1nc(S(=O)(=O)Cc2ccccc2)ncc1Cl | 17
CCOC(=O)C1(Cc2cccc(F)c2)CCN(C(=O)Cc2cccnc2)CC1 | -25
Cc1cnc(C(=O)OC(C)C(=O)NCc2ccccc2)cn1 (centres undefined) | -9
O=c1c2cc(NC(=S)NC3CC3)ccc2nc2n1CCCCC2 | -7
COc1ccccc1CCC(=O)Nc1ccc2c(c1)CN(Cc1ccc(C)o1)CC2 | -25
COc1ccc(/C(N)=N/OC(=O)c2ccc(C)c([N+](=O)[O-])c2)cc1 | 0
Cc1cc(C)n(-c2nncn2NC(=O)c2ccc(Cl)cc2O)n1 | -12
CC1CC(C)CN(S(=O)(=O)N2CCCC(C(=O)NC3CCCCC3)C2)C1 (centres undefined) | -8
CC(=O)Nc1ccc2c(c1)C(=O)N(c1cccc(C)c1)C2=O | -5
O=C(Nc1ccc2oc(Cc3ccc(Cl)cc3)nc2c1)c1cccnc1 | -38
CCSC1=NCCN1S(=O)(=O)c1ccc(F)cc1 | -15

Three compounds drawn at random from those above, as already listed:
Molecule | OX1R antag
COc1ccc(N/C=C(\C#N)c2ccc(OCCCF)cc2)cc1 | -33
O=C(NCCCN1CCN(Cc2ccccc2)CC1)c1nnc(Cc2c(F)cccc2Cl)o1 | -32
Nc1ccc2c(c1)sc1ccccc12 | -3

Exported as labelled records: 3 of the compounds above.
CC(C)NC(=O)c1sc(=S)n2c1[nH]c(=O)c1ccc(C(=O)NCCc3ccc(Cl)cc3)cc12
- OX1R antag = -1

CSc1nc2sc3c(c2c(=O)n1C)CCC(C)C3 (centres undefined)
- OX1R antag = -29

CCOC(=O)c1c(NC(=O)CSc2nnc(-c3cccnc3)o2)sc(C)c1C
- OX1R antag = -7
